# Screening results deposited in PubChem BioAssay by several laboratories.
# Beta cell apopt: blocks beta cell apoptosis. INS-1E cytokine-induced death, ATP luminescence, 48 h; percent of positive-control rescue, neutral wells zero. actives 0.8% (n = 300,000). protection from apoptosis, % (concentration not given with the values);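 active means all replicates at 75% or more, or half of them and the mean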;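 further: 0% = cytokine-treated negative control wells and 100% = positive control rescue; higher means more ATP so stronger rescue from cytokine killing; wells of about 40 µL received 100 nL stock; the first replicate is given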
# T cruzi inh: T. cruzi replication inhibition. T. cruzi beta-gal in NIH3T3, luminescence, 90 h. inhibition, % (test concentration not listed). actives 1.4% (n = 300,000). AID 1885;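 active means mean inhibition across valid replicates above about 55%, limit read from the data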;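 further: signal also drops with host cell toxicity which is not excluded here; 0% = plate median of DMSO wells and 100% = zero luminescence signal; higher percent means less beta-gal luminescence so fewer parasites; stock transfer was 50 nL into about 50 µL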
# FGF22 binding: binders of recombinant human FGF22 by thermal shift. Q9HCT0. SYPRO orange fluorescence; percent of sucrose octasulfate shift, DMSO zero. calls only at 9.99 µM. actives 1.5% (n = 340,000);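 active means melting point raised past a set limit in the mean and every replicate; three in four hits are not shown here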
# Target sequence (Q9HCT0 whole entry, looked up): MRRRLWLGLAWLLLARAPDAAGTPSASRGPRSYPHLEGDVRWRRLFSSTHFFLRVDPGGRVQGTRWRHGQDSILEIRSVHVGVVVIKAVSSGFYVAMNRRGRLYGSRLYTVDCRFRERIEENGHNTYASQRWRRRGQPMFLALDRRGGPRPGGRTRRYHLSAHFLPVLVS
# UCH37 DUB inh: inhibitors of human deubiquitinating enzyme UCH37; inhibition, % (concentration not given with the values); purified proteasome/UCH37, Ub-AMC cleavage fluorescence; AID 588478; Q9Y5K5; actives 0.33% (n = 330,000);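 active means mean of two replicates above 20%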;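 further: 0% = compound-free wells with enzyme and 100% = wells lacking proteasome; stock transfer was 100 nL into about 20 µL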
# Target sequence (Q9Y5K5 whole entry, looked up): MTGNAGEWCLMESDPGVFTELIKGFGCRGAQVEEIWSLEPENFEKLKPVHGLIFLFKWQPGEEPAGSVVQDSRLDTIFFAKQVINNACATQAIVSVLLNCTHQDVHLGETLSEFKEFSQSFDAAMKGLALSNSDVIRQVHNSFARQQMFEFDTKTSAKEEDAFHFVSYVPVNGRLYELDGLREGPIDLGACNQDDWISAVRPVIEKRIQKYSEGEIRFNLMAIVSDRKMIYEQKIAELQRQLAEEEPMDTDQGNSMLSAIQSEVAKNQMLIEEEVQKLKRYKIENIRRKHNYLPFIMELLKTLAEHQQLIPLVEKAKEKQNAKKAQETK
#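 System: Proteasome-associated human UCH37 deubiquitinase; Input: 0.15 nM proteasome in added enzyme buffer; Also added: Ub-AMC substrate from 1 µM stock; Incubation: 30 min compound-proteasome preincubation then 25 min substrate reaction, room temperature; Detection: fluorescence, ex 355 nm, em 460 nm; Read-out: % inhibition of Ub-AMC cleavage fluorescence; Benchmarks: no-proteasome and no-compound wells.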
# rRNA inh HTS: selective bacterial rRNA inhibition in E. coli; E. coli WT GFP vs humanized-ribosome RFP mutants, fluorescence, 24 h; stronger effect = lower value; DMSO median 0, no signal -100; GFP signal change (wild-type ribosome), % (concentration not given with the values); actives 1.6% (n = 350,000); AID 720706;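 active means significant combined selectivity score with lowered wild-type GFP, culture density cut under 30%, mutant RFP and density less affected; inactive means any of these conditions unmet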; further: one replicate is shown; some compounds called inactive have numbers as strong as hits
# Bfl-1 A1 inh: inhibitors of the anti-apoptotic protein A1, read as caspase activation; MEF A1-2A-BIM cells, Caspase-Glo 3/7 luminescence, 3 h; percent of clofoctol response, vehicle zero; caspase activation, % (concentration not given with the values); actives 0.066% (n = 330,000); AID 2462;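 active means over half of replicate activation scores above 10%, or exactly half above 10 with the replicate mean above 10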;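 further: wells of about 30 µL received 50 nL stock; many hits fall short of the cut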
# AF4-AF9 inh: inhibitors of human MLL-AF4/AF9 interaction. inhibition, % at 10 µM. actives 0.47% (n = 350,000). AlphaScreen, biotin-AF4 peptide binding to FLAG-AF9. P42568;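 active means every replicate reaching a set inhibition limit, whatever the replicate mean, cut at about 25% in these data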;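 further: 0% = plate neutral control median and 100% = total signal loss; the record names both 10 and 1 µM as test concentration; the first replicate is given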
# Target sequence (P42568 whole entry, looked up): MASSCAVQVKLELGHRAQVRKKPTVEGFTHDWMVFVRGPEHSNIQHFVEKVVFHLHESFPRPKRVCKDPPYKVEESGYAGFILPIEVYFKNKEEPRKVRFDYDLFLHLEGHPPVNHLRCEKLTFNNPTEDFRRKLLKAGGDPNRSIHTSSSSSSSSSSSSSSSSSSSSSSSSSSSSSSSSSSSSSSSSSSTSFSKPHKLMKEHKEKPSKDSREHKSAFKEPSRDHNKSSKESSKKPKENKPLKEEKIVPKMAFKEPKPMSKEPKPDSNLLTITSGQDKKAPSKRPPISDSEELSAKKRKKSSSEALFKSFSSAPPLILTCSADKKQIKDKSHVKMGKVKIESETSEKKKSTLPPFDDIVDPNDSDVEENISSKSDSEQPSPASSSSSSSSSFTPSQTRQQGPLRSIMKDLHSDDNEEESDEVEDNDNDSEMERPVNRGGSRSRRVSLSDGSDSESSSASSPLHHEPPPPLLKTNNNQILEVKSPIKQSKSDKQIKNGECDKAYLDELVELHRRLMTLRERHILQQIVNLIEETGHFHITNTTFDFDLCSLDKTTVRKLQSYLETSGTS
# E coli growth: blocks Escherichia coli growth; OD600, 23 h; stronger effect = lower value; OD600 absorbance (test concentration not listed); actives 0.21% (n = 330,000); AID 1053175;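 active means OD600 absorbance below the run mean of sample wells minus 3.6 SD, in any replicate, cut at about 0.56 in these data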;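 further: stock transfer was 300 nL into about 60 µL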
# rRNA inh HTS OD600: further read-out of rRNA inh HTS, marked with its call; OD600 change, %; measured here: OD600 growth;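 optical density of the mix in the first replicate; 0 = DMSO median and -100 = no signal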
# rRNA inh HTS RFP: also measured in rRNA inh HTS; calls as there; RFP signal change, %; measured here: RFP humanized mutant strains;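 first replicate; 0 = DMSO median and -100 = no signal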
# An asterisk follows results filed as active; i = inactive; . = no result given.
smiles	UCH37 DUB inh	E coli growth	FGF22 binding	rRNA inh HTS RFP	Beta cell apopt	AF4-AF9 inh	T cruzi inh	rRNA inh HTS	rRNA inh HTS OD600	Bfl-1 A1 inh
c1ccc(C[n+]2csc3ccccc32)cc1	0.3	0.74	i	-0.1	6	5.9	39	22	23	-0.4
C(=N\N=C\c1cccs1)/c1cccs1	.	.	i	0.7	-8	10.0	-25	10	15	0.3
COc1cccc(C2c3c(oc4ccc(F)cc4c3=O)C(=O)N2CCCN2CCOCC2)c1 (centres undefined)	2.1	0.76	i	2.0	-2	2.6	-17	8	4	0.1
CCOC(=O)C1CCCN(C(=O)c2cc(-c3ccco3)nc3ccccc23)C1 (centres undefined)	i	0.65	i	-0.1	.	-9.3	.	14	16	.
COCCN(CCOC)C(=O)N1CCOCC1	4.2	0.69	i	-3.3	1	-1.4	-15	5	-16	-0.3
COc1ccc2oc(C(=O)OCC(=O)NC3CCCC3)c(C)c2c1	-93	0.69	i	-3.3	.	-2.7	-7	-16	-14	0.2
COCCCNC(=O)c1sc2ncnc(N3CCc4ccccc4C3)c2c1C	1.5	0.7	.	.	-6	.	-9	.	.	-1.0
O=C(Cn1ncc(N2CCCC2)c(Br)c1=O)c1ccc(Cl)cc1	5.2	0.68	i	-3.4	2	1.4	19	-15	-18	0.0
O=C(Cc1cccs1)NNC(=S)NC(=O)c1ccco1	1.7	0.32*	i	-6.5	5	-1.9	-12	-30	-43	-0.5
O=C(NNC(=O)C1CCN(C(=O)Nc2ccccc2)CC1)c1ccc(F)cc1	0.6	0.68	i	-2.4	2	0.7	.	5	12	-0.3
COc1ccccc1OCC(=O)Nc1ccccc1C(=O)N1CCCC1	5.8	0.71	i	-0.2	.	1.5	-2	7	2	-0.9
CN(C)S(=O)(=O)c1ccc(N2CCCC2)c(C(=O)Nc2nc(-c3cc(F)ccc3F)cs2)c1	4.7	0.67	i	2.5	-1	-0.3	23	15	15	0.3
CCOc1ccc(NC(=O)c2c[nH]n3c(=O)cc(C4CCN(C(=O)OC(C)(C)C)CC4)nc23)cc1	16	0.67	i	12	0	-4.3	7	3	6	0.2
COC(=O)c1ccccc1NC(=S)NC(=O)CC(C)C	3.3	0.75	.	.	2	.	-1	.	.	0.4
CC(=O)c1ccc(N2CCc3ccccc3C2)c([N+](=O)[O-])c1	0.5	0.64	i	-5.4	-1	9.2	10	-40	-51	-0.6
CN(c1ccccc1)S(=O)(=O)c1cc(C(=O)Nc2ccccc2N2CCOCC2)ccc1Cl	1.9	0.73	i	0.3	.	0.6	.	-6	-1	.
O=C(O)C1CCCN1C(=O)c1cncc(Br)c1 (centres undefined)	7.0	0.67	.	0.3	-2	-30	-11	8	7	-0.8
Cc1cc(C)c(C)c(S(=O)(=O)NC(C)C(=O)O)c1C (centres undefined)	3.2	0.72	i	-3.4	-3	1.9	-15	10	1	0.8
COc1ccc(NC(=O)c2cccnc2)c(OC)c1	-2.1	0.67	.	.	3	.	2	.	.	-0.3
O=C(O)CCc1ccccc1OC(=O)c1ccccc1	7.2	0.66	i	0.3	-5	-5.7	10	-6	3	0.6
O=C(NCCCn1ccnc1)c1cc(-c2cccc(O)c2)on1	4.8	0.66	i	-5.0	3	7.2	-6	0	2	-0.3
CN(CC1CCCO1)S(=O)(=O)c1ccc(C(=O)Nc2nc(-c3ccccn3)cs2)cc1 (centres undefined)	0.3	0.74	.	.	104*	.	.	.	.	-0.6
Cc1cc(C)nc(NC(=O)CCCC(=O)O)c1	-3.3	0.73	.	.	-2	.	5	.	.	0.1
Cc1ccccc1NC(=O)c1ocnc1C	-0.2	0.78	i	1.5	-3	2.9	-9	13	17	-0.9
O=C(Nc1cccc(Br)c1)/C(=C\c1cccnc1)NC(=O)c1ccco1	1.1	0.71	.	.	-8	.	-1	.	.	0.1
FC(F)(F)c1cc(C(F)(F)F)c2ccc(N3CCN(c4ncccn4)CC3)nc2n1	-45	0.69	i	-3.1	1	-0.2	-1	10	-1	1.2
COc1cc(/C=N/NC(=O)c2nnn(-c3nonc3N)c2C(C)C)ccc1OCc1ccc(F)cc1	.	.	i	-2.0	31	-0.7	34	-7	-19	-0.4
CNc1nc(N)nc(-c2cc(Cl)ccc2OC)n1	.	.	i	0.0	0	-0.9	-9	14	13	-0.1
CCOC(=O)c1sc(N(C)C)nc1-c1ccccc1	5.1	0.73	.	.	0	.	8	.	.	-0.9
CCN(Cc1ccncc1)Cc1c(O)ccc2cc(Br)ccc12	4.9	0.67	.	20	.	0.4	-19	-1	-59	.

# Gathered by group, the entries above containing two or more sulfur atoms.
smiles	UCH37 DUB inh	E coli growth	FGF22 binding	rRNA inh HTS RFP	Beta cell apopt	AF4-AF9 inh	T cruzi inh	rRNA inh HTS	rRNA inh HTS OD600	Bfl-1 A1 inh
C(=N\N=C\c1cccs1)/c1cccs1	.	.	i	0.7	-8	10.0	-25	10	15	0.3
O=C(Cc1cccs1)NNC(=S)NC(=O)c1ccco1	1.7	0.32*	i	-6.5	5	-1.9	-12	-30	-43	-0.5
CN(C)S(=O)(=O)c1ccc(N2CCCC2)c(C(=O)Nc2nc(-c3cc(F)ccc3F)cs2)c1	4.7	0.67	i	2.5	-1	-0.3	23	15	15	0.3
CN(CC1CCCO1)S(=O)(=O)c1ccc(C(=O)Nc2nc(-c3ccccn3)cs2)cc1 (centres undefined)	0.3	0.74	.	.	104*	.	.	.	.	-0.6

# Record cards (already shown). Values in the order: UCH37 DUB inh	E coli growth	FGF22 binding	rRNA inh HTS RFP	Beta cell apopt	AF4-AF9 inh	T cruzi inh	rRNA inh HTS	rRNA inh HTS OD600	Bfl-1 A1 inh
# O=C(O)CCc1ccccc1OC(=O)c1ccccc1 as listed: 7.2	0.66	i	0.3	-5	-5.7	10	-6	3	0.6
# CNc1nc(N)nc(-c2cc(Cl)ccc2OC)n1 as listed: .	.	i	0.0	0	-0.9	-9	14	13	-0.1

# Remaining list, next part:
smiles	UCH37 DUB inh	E coli growth	FGF22 binding	rRNA inh HTS RFP	Beta cell apopt	AF4-AF9 inh	T cruzi inh	rRNA inh HTS	rRNA inh HTS OD600	Bfl-1 A1 inh
Cc1cc(C)c(NC(=O)Nc2ccccc2)c(Cl)c1	4.8	0.69	.	.	-3	.	1	.	.	-0.4
Cc1ccnc(NS(=O)(=O)c2ccc(C(C)(C)C)cc2)c1	1.7	0.67	.	0.0	-2	-2.9	2	19	9	-1.5
CCCCN(C)S(=O)(=O)c1c(C)[nH]c(=O)[nH]c1=O	2.5	0.7	i	-5.2	0	-5.2	-9	0	-1	-0.3
CCOC(=O)c1c(CN(C)C)n(C)c2ccc(OC(C)=O)cc12	-0.8	0.74	.	.	-2	.	-8	.	.	-0.4
COc1ccc(-c2c(C#N)c(SCC(=O)Nc3ccccc3)nc3c2CCCC3)cc1	1.8	0.75	.	.	1	.	41	.	.	0.2
COc1ccc(-c2[nH]ncc2CN2CCCN(C(=O)c3ccco3)CC2)cc1F	1.1	0.68	i	0.5	1	-0.2	9	4	3	1.8
CCCC(=O)N(CCc1ccc(OC)cc1)Cc1nc2ccccc2c(=O)[nH]1	2.7	0.65	i	0.9*	-3	1.5	-3	-21*	-9.5*	0.0
COc1cc2c(=O)n(CC3CCCO3)c(=O)n(CC(=O)Nc3ccc(F)cc3F)c2cc1OC (centres undefined)	-7.1	0.75	i	0.6	.	-2.2	11	9	3	1.4
Cc1occc1C(=O)NC1CCCc2ccccc21 (centres undefined)	3.7	0.71	.	.	-3	.	-2	.	.	-0.2
CCn1cc(C(=O)N[C@@H](CCSC)C(=O)NCCCO)c(=O)c2cc3c(cc21)OCO3	-11	0.65	i	0.2	-2	-4.2	-4	2	-4	-0.4
Cn1nc(-c2ccc(Cl)cc2)c2cc(C(=O)NCCN3CCOCC3)sc21	-82	0.75	i	-6.2	4	1.9	2	-5	13	0.5
Cc1nc2sccn2c(=O)c1S(=O)(=O)NCC(C)c1ccccc1 (centres undefined)	-0.9	0.65	i	2.2	6	-2.8	-34	1	5	0.3
CCCCNC(=O)C1CCCN(S(=O)(=O)c2c(C)noc2/C=C/c2cccs2)C1 (centres undefined)	-4.6	0.71	i	11	35	-6.9	25	2	-3	1.4
O=C1CCCc2c1nc(-c1cccc(Cl)c1)n2O	-60	0.59	.	.	.	.	-14	.	.	0.5
CC1Sc2ccc(S(=O)(=O)CCC(=O)NC(C)c3ccccc3)cc2NC1=O (centres undefined)	0.0	0.68	i	1.4	1	2.5	-2	-2	3	-2.1
COc1ccccc1CNC(=O)c1ccc(Br)o1	1.2	0.69	i	-1.1	-9	1.5	-1	4	-1	0.5
COc1cccc(N2CCN(C(=O)CN3C(=O)NC(C)(c4ccc5ccccc5c4)C3=O)CC2)c1 (centres undefined)	6.0	0.64	.	-3.5	13	1.2	15	-18	-21	0.8
Cc1nc2scc(C)n2c(=O)c1S(=O)(=O)N1CCN(c2cccc(C(F)(F)F)c2)CC1	-1.4	0.68	i	3.0	-4	8.6	16	-4	-7	0.1
CC(OC(=O)Cn1[nH]c(=O)c2ccccc2c1=O)C(=O)Nc1ccccc1[N+](=O)[O-] (centres undefined)	1.3	0.7	i	1.0	.	-0.6	-1	4	7	-1.0
CC[C@@]12C(=O)N(c3cccc(Br)c3)C(=O)N1[C@H](c1ccc(F)cc1)[C@@H]1C(=O)N(C3CCCCC3)C(=O)[C@@H]12	2.2	.	i	0.7	1	2.9	9	17	10	1.0
COc1ccc(C(=O)/C=C/c2ccc(O)cc2)c2c1CC(O)C(C)(C)O2 (centres undefined)	4.2	0.68	i	4.6	.	5.7	.	-13	-1	.
COC(=O)CCC(=O)NC(=S)Nc1ccc(S(=O)(=O)Nc2cc(C)on2)cc1	-1.0	0.69	i	0.8	-12	-1.4	-2	1	0	0.3
Cc1ccc(Nc2ncnc3nc[nH]c23)cc1Cl	4.8	0.68	i	0.7	10	6.2	-8	8	14	-6.0
Cc1ccc(NC(=O)CSc2nc3c(c(=O)n(C)c(=O)n3C)n2C)cc1	0.5	0.64	i	0.9	1	-1.6	-16	1	11	0.4
COc1ccc(N(C)S(=O)(=O)c2cccc(C(=O)Nc3nc(C)cs3)c2)cc1	0.1	0.69	i	-11	-2	9.2	.	-41	-48	-0.3
Cc1cccc(NC(=O)CSc2nnnn2-c2cccnc2)c1	0.9	0.69	.	.	1	.	11	.	.	-0.8
COc1ccc(-c2noc(CNC(=O)Nc3ccc(F)cc3)n2)cc1	0.7	0.68	i	-4.3	-1	0.6	-6	-31	-31	-0.5
O=C(Nc1cccnc1N1CCOCC1)c1ccco1	1.4	0.69	.	.	1	.	-10	.	.	0.2
O=C(CNc1cccc(C(F)(F)F)c1)N/N=C/C1CCCCC1	.	.	i	-2.7	-4	-0.6	-27	-3	-1	-0.2
Cc1ccc(CNC(=O)c2ccc(C)c(S(=O)(=O)N3CCCCC3)c2)cc1	-0.2	0.68	i	0.6	-2	-1.5	.	11	2	-0.7
COc1ccc(C(=O)Nc2ccnn2C2CCN(Cc3ccn[nH]3)CC2)cc1	7.1	0.71	i	-4.2	-2	2.2	6	-5	2	1.0

# Not all compounds are listed (hit frequency here may not be typical).
